# Bioassay records (PubChem BioAssay)
# CSC inhib – cancer stem cell viability inhibitors, primary screen, luminescence; cancer stem cell-like cells viability; inhibition, % at 7.5 µM; hit rate 1.1% among 300,000; AID 2717, 2010;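 active means mean at 75% or more and at least half the replicates too; inconclusive means mean and replicates disagree; tested in HMLE shEcad cells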;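 further: 0% = median of negative and 100% = median of positive control wells; the first replicate is given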
# PABP polyA inh – PABP poly(A) RNA binding inhibitors, primary screen, biochemical, fluorescence polarization, uHTS; inhibition, % at 35 µM; hit rate 1% among 290,000; AID 2014, 2009;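 active means 50% or more with normal probe brightness, or confirmed in later tests; inconclusive means above 50% with abnormal brightness, or retests that disagree; inactive means below 50% or failed in later tests; about a fifth of its hits are not listed in these tables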;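 further: calls also rest on retests at 20 µM and on dose response follow-up; controls were probe without protein and protein plus probe with vehicle; some compounds called inactive have numbers as strong as hits; many hits fall short of the cut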
# Target sequence (P11940 whole entry, looked up): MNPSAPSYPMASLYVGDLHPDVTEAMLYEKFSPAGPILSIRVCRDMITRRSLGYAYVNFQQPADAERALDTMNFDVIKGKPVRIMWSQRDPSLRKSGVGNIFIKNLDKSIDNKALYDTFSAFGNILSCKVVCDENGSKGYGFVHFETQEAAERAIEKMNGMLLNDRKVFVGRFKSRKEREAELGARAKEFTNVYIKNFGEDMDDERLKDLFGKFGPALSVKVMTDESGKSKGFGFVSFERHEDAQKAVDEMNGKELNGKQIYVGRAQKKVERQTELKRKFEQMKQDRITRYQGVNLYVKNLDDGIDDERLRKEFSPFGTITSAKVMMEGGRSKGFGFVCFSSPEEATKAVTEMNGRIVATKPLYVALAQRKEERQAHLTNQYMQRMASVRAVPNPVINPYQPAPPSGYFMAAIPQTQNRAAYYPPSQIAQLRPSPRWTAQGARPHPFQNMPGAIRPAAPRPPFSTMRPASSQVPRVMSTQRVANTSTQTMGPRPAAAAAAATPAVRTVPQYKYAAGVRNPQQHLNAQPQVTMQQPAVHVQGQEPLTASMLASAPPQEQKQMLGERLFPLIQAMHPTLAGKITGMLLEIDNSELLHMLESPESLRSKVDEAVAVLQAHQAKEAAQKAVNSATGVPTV
# Rce1 inh – yeast Rce1p protease inhibitors, primary screen, biochemical, fluorescence, cell-free homogeneous; CAAX prenyl protease 2 (Saccharomyces cerevisiae (strain ATCC 204508 / S288c)), Q03530; yeast membranes, quenched prenylated peptide cleavage fluorescence; calls only; hit rate 0.27% among 290,000; AID 2563, 2010;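 active means fall in fluorescence gain of 50% or more versus controls, with final raw signal at or below 3038400; inconclusive means same 50% fall but final raw signal above 3038400; inactive means fall in fluorescence gain under 50%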;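 further: plate controls were neutral control wells for no effect and wells lacking membranes for full effect; tested at 10 µM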
# Target sequence (Q03530 whole entry, looked up): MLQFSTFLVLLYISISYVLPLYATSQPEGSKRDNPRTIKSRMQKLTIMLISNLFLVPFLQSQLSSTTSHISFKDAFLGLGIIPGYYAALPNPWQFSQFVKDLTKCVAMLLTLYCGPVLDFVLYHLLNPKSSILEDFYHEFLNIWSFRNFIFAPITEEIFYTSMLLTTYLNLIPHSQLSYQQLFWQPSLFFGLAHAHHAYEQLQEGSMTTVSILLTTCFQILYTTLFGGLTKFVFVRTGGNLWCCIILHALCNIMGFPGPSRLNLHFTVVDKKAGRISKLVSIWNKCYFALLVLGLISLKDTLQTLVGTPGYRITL
# MT1-MMP act inh – blockers of MT1-MMP proenzyme processing, primary screen, HT1080 RFP-PRO-GFP cells, GFP/RFP fluorescence | GFP/RFP ratio change, % at 20 µM | Matrix metalloproteinase-14 (Homo sapiens), P50281 | AID 651647, 2012 | hit rate 0.061% among 360,000 | GFP/RFP ratio fluorescence, overnight; percent of plate control window, DMSO zero;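 active means GFP/RFP ratio change of at least 30% with cell ATP level not reduced by more than half and red fluorescence within 50% of control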; further: strong numbers were not always called active
#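 Assay system: HT1080 cells carrying an RFP-PRO-GFP reporter | Dosing: Single dose of 20 µM compound, 1% DMSO final | Incubation: Cells overnight before dosing, compound overnight, 37 °C, 5% CO2 | Evaluation: GFP/RFP fluorescence ratio | Control set: DMSO and RFP-L50D-GFP cell wells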
# eIF4H inh – human eIF4H binding inhibitors, primary screen, translation initiation inhibitor project, biochemical, uHTS, fluorescence polarization; hit rate 0.94% among 290,000; Eukaryotic translation initiation factor 4H (Homo sapiens), Q15056; inhibition, % at 35 µM; eIF4H fluorescence polarization binding assay; AID 2012, 2009;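 active means 50% or more with normal probe brightness, or confirmed in later tests; inconclusive means above 50% with abnormal brightness, or retests that disagree; inactive means below 50% or failed in later tests; about a fifth of its hits are not listed in these tables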;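 further: calls also rest on retests at 20 µM and on dose response follow-up; 0% = protein and probe with vehicle and 100% = probe without protein; strong numbers were not always called active; many hits fall short of the cut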
# UUG fidelity – modulators of yeast start codon fidelity, primary screen, whole organism, S. cerevisiae, single point, plate reader | S. cerevisiae UUG-firefly luciferase reporter, luminescence/redox ratio | activity score, % at 18.7 µM | hit rate 0.13% among 350,000 | AID 602363, 2012;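 active means replicate mean at a twofold rise or more, about +100% in these data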;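 further: firefly luciferase made from a UUG start codon reports start codon fidelity; reporter light over untreated wells divided by growth signal over untreated wells; some hits fall short of that in this replicate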
# HIV Env fusion – inhibitors of HIV-1 Env-driven cell-cell fusion, primary screen, HeLa-JRFL effector, CEM21 target cells, luciferase; inhibition, % at 12.3 µM; hit rate 1.1% among 360,000; AID 651610, 2012;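 active means mean replicate inhibition score of at least 50 and every replicate individually at or above 50; inconclusive means only one of the two criteria met; inactive means mean below 50 and not all replicates reaching 50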;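 further: 0% = plate neutral controls and 100% = maraviroc near 300 nM; one replicate is shown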
# eIF4H inh retest – second read-out of eIF4H inh, no call of its own (marks repeat the call); inhibition, %; compound at 20 µM; confirmation average;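 mean of two retest wells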
# PABP polyA inh retest – recorded beside PABP polyA inh, whose call it bears; inhibition, %; compound at 20 µM; confirmation repeats;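 mean of two retest wells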
# MT1-MMP act inh RFP – recorded beside MT1-MMP act inh, whose call it bears; RFP signal change, %; measured here: RFP expression control read;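 0 = vehicle wells; hits needed this value within 50% of zero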
# The depositor's hits bear a star; i = inactive; ? = inconclusive; nt = not tested or not shown.
# The opening two records (preview)
SMILES,CSC inhib,PABP polyA inh,Rce1 inh,MT1-MMP act inh,MT1-MMP act inh RFP,eIF4H inh,UUG fidelity,HIV Env fusion,others
C/C(=N\NC(=O)COc1cccc2ccccc12)c1cccs1,-8.2,1.7,i,1.9,-2.8,-5.8,-18.0,7.9,
O=C(N[C@H]1C/C=C\C(c2ccc(F)cc2)N(Cc2ccccc2)C(=O)C1)OCC1c2ccccc2-c2ccccc21 (stereo not given in full),nt,nt,nt,-0.3,2.4,nt,7.3,-156.1,

# The whole of this part (from the top)
SMILES,CSC inhib,PABP polyA inh,Rce1 inh,MT1-MMP act inh,MT1-MMP act inh RFP,eIF4H inh,UUG fidelity,HIV Env fusion,others
C/C(=N\NC(=O)COc1cccc2ccccc12)c1cccs1,-8.2,1.7,i,1.9,-2.8,-5.8,-18.0,7.9,
O=C(N[C@H]1C/C=C\C(c2ccc(F)cc2)N(Cc2ccccc2)C(=O)C1)OCC1c2ccccc2-c2ccccc21 (stereo not given in full),nt,nt,nt,-0.3,2.4,nt,7.3,-156.1,
O=C(Nc1ccc(N2CCOCC2)cc1N1CCOCC1)c1ccc(F)cc1,-26.1,nt,nt,4.2,0.7,nt,2.8,4.4,
CC1CN(C(=O)c2cc(S(=O)(=O)N3CCCC3)ccc2Cl)CC(C)O1 (stereo not given),nt,-14.9,i,4.0,1.9,2.5,4.1,2.3,
C[C@H](NC(=O)c1[nH]cnc1C(=O)Nc1ccc(CNC(=O)OC(C)(C)C)cc1)C(=O)OCc1ccccc1,-13.4,-5.5,i,5.4,-7.3,11.8,-17.7,-9.7,
CC(NCCS(=O)(=O)c1ccc(Cl)cc1)c1cccc(Cl)c1 (stereo not given),-5.1,6.2,i,3.0,3.1,2.3,-9.3,32.9,
CCN(C(=O)COc1nc(C)cc(C)c1C#N)c1ccccc1,2.4,30.4,i,-2.3,2.3,-7.8,-4.7,8.4,
COc1ccccc1NC(=O)CSc1nnc(CC(=O)Nc2cccc(C(F)(F)F)c2)n1C,-4.1,-5.4,i,-0.2,1.2,-1.6,-19.9,-70.2,
Cc1ccc(NS(=O)(=O)c2ccc(C(=O)N3CCOCC3)cc2)cc1,7.5,nt,i,1.1,-8.9,nt,-6.7,nt,
COc1cccc(NS(=O)(=O)Cc2ccccc2)c1,1.3,5.8,i,1.4,4.2,-7.5,-5.7,-14.4,
CN(C(=O)COC(=O)/C=C/c1cccs1)C1CCCCC1,1.9,nt,nt,0.0,1.4,nt,-11.0,9.4,
CC(C)Cn1c(SCC(=O)N2CCCCC2)nc2ccccc2c1=O,-7.7,11.6,i,-2.2,-1.1,-6.3,11.8,-111.9,
CCOC(=O)C1=C(C)NC(=S)NC1c1ccc(OC(=O)c2ccco2)cc1 (stereo not given),2.6,-4.0,i,3.4,7.2,9.4,-26.3,9.5,
O=[N+]([O-])c1ccccc1Oc1ncccc1[N+](=O)[O-],-7.3,-6.5,i,4.1,3.3,-1.5,-15.8,-11.0,
Cc1ccc2c(c1)c1c(n2CC(O)Cn2nc(C)c(Br)c2C)CCCC1 (stereo not given),nt,2.1,i,-1.6,-2.1,4.0,-16.1,-63.6,
CN1CCN(C(=O)C2CCN(c3ncc(C(F)(F)F)cc3Cl)CC2)CC1,45.5,-3.2,i,-3.7,-5.8,-9.3,nt,-8.9,
CC1CCN(C(=O)Nc2cccc(NC(=O)N3CCC(C)CC3)c2)CC1,-10.1,1.5,i,1.7,2.2,-2.4,-10.3,nt,
COc1cc(C(O)c2nc(-c3cncnc3)cs2)ccc1F (stereo not given),nt,nt,nt,-1.8,2.1,nt,-12.4,-13.4,
O=c1c(C(c2ccc(Cl)cc2)c2c(O)nc3n(c2=O)CCCS3)c(O)nc2n1CCCS2,11.4,10.2,i,0.0,1.5,0.2,nt,0.8,
C1CCN(Cc2nnnn2C2CCCC2)CC1,14.9,-13.3,i,2.8,3.5,-6.4,-15.5,-16.5,
COc1ccccc1N=C1SC(C(=O)Nc2ccc(F)cc2)CC(=O)N1C (stereo not given),2.2,?,i,0.5,4.4,-7.7,2.3,nt,
CCOCCSc1nc2c(c(-c3cccs3)c1C#N)CC/C2=C/c1cccs1,43.8,6.0,i,-3.9,3.0,17.5,nt,8.7,
COC(=O)c1ccc(NC(C)C(=O)OC)c([N+](=O)[O-])c1 (stereo not given),nt,11.0,i,1.2,1.5,-7.7,nt,nt,
CN1CCN(CC(=O)N/N=C\c2c[nH]c3ccccc23)CC1,-0.4,-12.1,i,nt,nt,-4.4,nt,-13.2,
CC1=C(C(=O)N2CCOCC2)C(c2ccc(OC(F)F)cc2)NC(=S)N1c1ccccc1 (stereo not given),-9.2,-1.3,i,0.1,0.2,-0.7,nt,1.5,
NS(=O)(=O)c1ccc(NC(=O)CN2C(=O)c3ccccc3C2=O)cc1,-6.1,2.3,i,0.8,6.2,2.8,nt,-48.8,
COC(=O)c1ccc(C(=O)NC2CCCc3c2cnn3-c2cc(F)cc(F)c2)nc1 (stereo not given),-7.0,-9.5,i,-4.2,-13.0,-0.9,13.3,13.7,
CN(C)CCCN(C(=O)c1ccc2ccccc2c1)c1nc2cc3c(cc2s1)OCO3,5.4,-9.0,i,-2.1,-2.3,-4.7,-18.9,-12.4,
NC(=O)c1ccsc1NC(=O)CSc1n[nH]c(N)n1,-13.0,nt,nt,0.2,2.2,nt,-18.8,5.0,
CC(=O)c1cccc(NC(=O)N2CCCC2C(=O)Nc2ccc3c(c2)OCCO3)c1 (stereo not given),-10.8,3.8,nt,0.1,4.9,1.1,nt,26.3,
CCNC(=O)NC(=O)COC(=O)C1CSC2(C)CCC(=O)N12 (stereo not given),-5.2,2.2,i,-2.1,-1.7,6.1,nt,5.8,
C=CCOc1ccc(C2NC(=O)c3ccccc3O2)cc1OC (stereo not given),nt,nt,nt,4.6,2.5,nt,-11.6,0.7,
Cc1cc(C)cc(NS(=O)(=O)c2c(C)[nH]c(=O)[nH]c2=O)c1,2.2,3.5,i,-3.6,0.3,-4.9,-20.9,-2.5,
CCOC(=O)C1=NOC(CNc2ncc(C(F)(F)F)cc2Cl)C1 (stereo not given),2.3,-5.0,i,0.7,0.9,1.3,nt,9.5,
Cn1c(=O)c2cc(NC(=O)c3ccccc3Cl)c(=O)oc2n(C)c1=O,nt,23.0,i,-4.6,3.1,10.8,-3.8,nt,
Cn1c(CNc2ccccc2O)nc2ccccc21,5.4,69.2*,i,0.6,-6.2,86.4*,-23.1,nt,
Cc1nn(-c2ccccc2)c(C)c1NC(=O)COC(=O)c1cc(Br)ccc1O,-3.1,nt,i,0.6,0.3,nt,-10.4,-0.9,
OCCN1CCN(c2ncnc3c2ncn3[C@H]2CN(Cc3ccc(-c4ccccc4)cc3)C[C@@H](CO)O2)CC1,nt,nt,nt,6.6,-14.1,nt,-1.7,-28.1,
O=C(N/N=C\c1ccc(-c2ccccc2[N+](=O)[O-])o1)C1COc2ccccc2O1 (stereo not given),-9.0,-2.4,i,-1.5,3.1,4.1,-14.3,-50.9,
CC(C)COc1ccc(C(=O)OCCN2CCOCC2)cc1,nt,9.3,i,3.2,2.6,10.0,-16.1,nt,
Cc1cccc(NC(=O)CS(=O)CC(=O)Nc2cnc3ccccc3c2)c1C (stereo not given),-7.7,11.2,i,-2.9,-1.4,-7.8,-14.9,9.8,
Nc1c(NCCCN2CCOCC2)c2ccccc2oc1=O,-6.7,6.5,i,1.5,0.7,-7.1,nt,nt,
CC(C)c1nnc(NC(=O)CS(=O)(=O)Cc2ccccc2)s1,-7.3,-3.4,i,-9.8,-1.4,-2.3,nt,-7.9,
COc1ccccc1C(=O)Nc1nnc(C)s1,-6.0,-10.2,i,-2.0,-3.6,-11.1,-6.5,-94.6,
O=C(COC(=O)[C@@H]1CC(O)CN1S(=O)(=O)c1ccc2c(c1)OCCO2)Nc1cc(F)ccc1F (stereo not given in full),-13.6,nt,nt,3.0,6.6,nt,-10.6,0.3,
CN(C)CCCn1c(SCCN2C(=O)c3ccccc3C2=O)nc2ccccc2c1=O,-6.5,5.5,i,-1.1,0.7,10.9,nt,-3.0,
CCOC(=O)C1CCN(S(=O)(=O)c2cnc[nH]2)CC1,-7.0,-2.6,i,3.8,10.2,-3.2,-0.3,nt,
Nn1c(SCC(=O)Nc2ccc3c(c2)OCO3)nnc1C1CCCCC1,-8.4,0.7,i,nt,nt,-2.8,nt,10.1,
O=C(c1cccc(S(=O)(=O)N2CCCC2)c1)N1CCN(Cc2ccccc2)CC1,nt,nt,nt,0.0,2.0,nt,-3.8,3.5,
COCCCNC(=O)CS(=O)Cc1nc(-c2ccccc2C)oc1C (stereo not given),-2.7,6.9,i,-0.3,4.9,-6.5,-4.7,-6.4,
Cc1ccnc(NC(=O)C2COc3ccccc3O2)c1 (stereo not given),-20.3,-2.4,i,-6.3,-3.2,-4.3,nt,4.3,
Cc1nc2ccccc2c2c1C(=O)N(C1CCCCCCC1)C2=O,16.1,-3.4,i,-2.2,0.4,6.1,-18.6,4.5,
CCCN(CCC)CCCNC(=O)C(NS(=O)(=O)c1ccc2c(c1)CCC(=O)N2)c1ccccc1 (stereo not given),3.5,1.0,i,0.4,4.1,7.5,nt,8.1,
CCOC(=O)c1c(-c2ccc(C)cc2)csc1NC(=O)c1cc2ccccc2oc1=O,2.0,nt,i,0.5,0.5,nt,-10.9,17.1,
COc1ccc(C2CN=NC2C(=O)c2ccccc2)cc1 (stereo not given),nt,-5.2,nt,-0.7,1.2,-8.4,-14.3,12.1,
Cc1cc(C)n2nc(SCC(=O)Nc3ccc(F)cc3)nc2n1,-24.5,3.6,i,2.4,0.1,-0.8,-3.1,-24.5,
O=C(/C=C1\NCC2c3ccccc3CCN2C1=O)c1ccccc1 (stereo not given),nt,2.4,i,-4.5,2.7,-0.6,-1.9,-364.3,
CCCNc1c(NS(=O)(=O)c2ccc(C(C)(C)C)cc2)c(=O)oc2ccccc12,-6.5,3.9,i,1.9,-0.1,-3.5,-5.8,15.3,
Cn1c(=O)n(C)c2cc(CNc3ccc(N4CCOCC4)c(C(=O)O)c3)ccc21,nt,-0.1,i,9.1,1.1,-3.0,-6.2,21.1,
CSC(C1CCCC1)n1nnc2ccccc21 (stereo not given),2.0,nt,i,2.0,-3.9,nt,-8.7,29.5,

# Next results
SMILES,CSC inhib,PABP polyA inh,Rce1 inh,MT1-MMP act inh,MT1-MMP act inh RFP,eIF4H inh,UUG fidelity,HIV Env fusion,others
CNC(=O)/C(C#N)=C/c1ccc(-c2ccc(Cl)cc2)o1,-10.2,?,i,1.4,-2.0,?,nt,-12.4,
Cc1ccccc1S(=O)(=O)Cc1ccc(C(=O)NC2CCCCC2)o1,-11.3,-5.1,i,-3.3,-1.2,-14.0,nt,5.0,
Clc1ccc(-c2cnc3ccccc3n2)cc1,-8.9,-4.4,i,4.6,3.4,3.3,nt,-159.9,
Nc1nc(NC(=O)/C=C\C(=O)O)nn1-c1ccccc1,nt,-12.5,i,-0.7,9.2,50.1,nt,-5.3,eIF4H inh retest=-2.3;PABP polyA inh retest=6.7

# This is a subset; rates above refer to the full screens.
